# From PubChem
# MenB inh: blocks the Mycobacterium tuberculosis MenB enzyme. inhibition, %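 (about 12 µg/mL by stock and volumes)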. actives 0.43% (n = 100,000). MenB enzyme assay, absorbance read-out; some hits fall short of the stated cut. P9WNP5;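 active means mean of two replicates above 30%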;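 further: 0% = no compound and 100% = wells with inactive enzyme; the first replicate is given; strong numbers were not always called active; inactives centre near -10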
# Target sequence (P9WNP5 whole entry, looked up): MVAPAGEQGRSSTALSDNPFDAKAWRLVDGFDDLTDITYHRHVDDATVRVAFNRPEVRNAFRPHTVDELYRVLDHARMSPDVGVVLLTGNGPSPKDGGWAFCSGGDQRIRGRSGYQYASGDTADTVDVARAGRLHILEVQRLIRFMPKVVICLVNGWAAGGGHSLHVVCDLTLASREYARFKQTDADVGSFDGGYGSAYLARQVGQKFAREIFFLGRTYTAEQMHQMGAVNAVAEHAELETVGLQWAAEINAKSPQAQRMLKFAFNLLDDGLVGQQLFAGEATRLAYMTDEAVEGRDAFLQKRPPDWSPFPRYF
# PV pol inh: inhibitors of poliovirus RNA polymerase binding and polymerization; poliovirus polymerase elongation, fluorescence polarization; active compounds read low; AID 588519; actives 0.66% (n = 150,000); P03300; % elongation, % (compound at 16.7 µg/mL); in the data active means % elongation below about 90%; further: some results filed as inactive read as strong as hits
# Mtb MbtI inh: MbtI salicylate synthase inhibition | P9WFX0 | purified MbtI enzyme, fluorescence intensity read-out | inhibition, %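 (about 17 µg/mL by stock and volumes)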 | actives 0.89% (n = 100,000);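 active means above 50% in both replicates, above 80% if mildly self-fluorescent; inactive means the rest, strongly fluorescent compounds included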;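 further: 0% = mean of negative and 100% = mean of positive controls; one replicate is shown; some compounds called inactive have numbers as strong as hits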
# Target sequence (P9WFX0 whole entry, looked up): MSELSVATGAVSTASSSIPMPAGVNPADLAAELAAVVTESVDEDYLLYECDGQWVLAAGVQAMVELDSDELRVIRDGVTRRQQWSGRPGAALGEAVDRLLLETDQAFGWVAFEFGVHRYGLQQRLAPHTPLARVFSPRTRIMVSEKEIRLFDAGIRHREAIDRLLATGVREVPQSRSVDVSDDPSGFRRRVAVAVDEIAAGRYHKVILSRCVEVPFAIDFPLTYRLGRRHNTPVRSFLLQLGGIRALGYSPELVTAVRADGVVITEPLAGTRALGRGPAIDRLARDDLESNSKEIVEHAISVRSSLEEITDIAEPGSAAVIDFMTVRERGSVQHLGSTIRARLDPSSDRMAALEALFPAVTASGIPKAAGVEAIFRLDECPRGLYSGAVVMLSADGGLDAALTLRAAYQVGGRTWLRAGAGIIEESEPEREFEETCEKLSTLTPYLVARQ
# PV pol inh intensity: further read-out of PV pol inh, marked with its call; % elongation; measured here: total intensity read-out; formula for this scale not given here;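 total fluorescence in place of polarization; lower means less elongation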
# Starred values were filed as active, the others as inactive; / = no result given; & = joins results of further samples.
# Preview:
no.	SMILES	MenB inh	PV pol inh	PV pol inh intensity	Mtb MbtI inh
1	Cc1ccc(NCc2ccc(O)c3ncccc23)cc1	-19	133	151	/
2	Cc1cc(C(=O)CN2CCCC2)c(C)n1-c1ccc(F)cc1	9	96	103	6
3	CCN1CCN(C(=O)C2=CC(c3ccc(OC)cc3)=NS(=O)(=O)N2C)CC1	-31	105	102	4
4	CN(C)CCN1CC(C(=O)O)CC1=O (configuration not stated)	37	103	100	1
5	CCn1ccc(C(=O)Nc2sc(C(=O)OC)c(C)c2C(=O)OC)n1	-49	102	97	22
6	Cc1onc(-c2ccccc2)c1C(=O)NCCSCc1ccco1	-14	103	108	-2
7	Cc1nc2ccccn2c1-c1ccnc(SCC(=O)c2ccc(Cl)cc2)n1	-12	105	109	-24
8	CC(=O)Nc1sc(C)c(C)c1C(=O)OCC(=O)c1cc(C)n(-c2ccc3c(c2)OCCO3)c1C	1	102	107	-6
9	CCn1cc(C(=O)O)c(=O)c2cc(F)c(N3CCNCC3)cc21	-9&8	100&98	99&101	163&136
10	CCn1c(SCc2ccc(Br)cc2)nnc1-c1ccncc1	-11	101	102	11
11	COc1ccccc1NC(=O)Cc1nc(CSc2nc(C)cs2)cs1	1	/	/	14
12	O=C(Nc1ccccc1)c1ccccc1SCC(=O)N1CCCC1	-26	101	109	101
13	O=c1[nH]nc(SCc2ccccc2)c(=S)[nH]1	-66	107	112	/
14	COC(=O)NC(=S)Nc1ccc(Oc2ccc(Cl)cc2Cl)cc1	-36	104	107	-6
15	Cc1[nH]c2ccccc2c1C(Nc1ccccc1)c1ccccn1 (configuration not stated)	/	100	95	10
16	NNC(=O)c1ccc(CSc2n[nH]c(=O)[nH]c2=O)cc1	11	102	105	6
17	Cc1cn2c3ccccc3nc2n1CCCO	-26	96	92	-3
18	C=CCN(CC=C)C(=O)c1ccc(C)s1	4	101	104	-14
19	CCOC(=O)C1CC(O)CN1 (configuration not stated)	-37	101	101	-1
20	COc1ccccc1/C=N/NC1=NCCCCC1	-12	102	99	28
21	CCOc1ccccc1CN1CCN(C)CC1	-1	98	102	-6

# All compounds of this part (from the top)
no.	SMILES	MenB inh	PV pol inh	PV pol inh intensity	Mtb MbtI inh
1	Cc1ccc(NCc2ccc(O)c3ncccc23)cc1	-19	133	151	/
2	Cc1cc(C(=O)CN2CCCC2)c(C)n1-c1ccc(F)cc1	9	96	103	6
3	CCN1CCN(C(=O)C2=CC(c3ccc(OC)cc3)=NS(=O)(=O)N2C)CC1	-31	105	102	4
4	CN(C)CCN1CC(C(=O)O)CC1=O (configuration not stated)	37	103	100	1
5	CCn1ccc(C(=O)Nc2sc(C(=O)OC)c(C)c2C(=O)OC)n1	-49	102	97	22
6	Cc1onc(-c2ccccc2)c1C(=O)NCCSCc1ccco1	-14	103	108	-2
7	Cc1nc2ccccn2c1-c1ccnc(SCC(=O)c2ccc(Cl)cc2)n1	-12	105	109	-24
8	CC(=O)Nc1sc(C)c(C)c1C(=O)OCC(=O)c1cc(C)n(-c2ccc3c(c2)OCCO3)c1C	1	102	107	-6
9	CCn1cc(C(=O)O)c(=O)c2cc(F)c(N3CCNCC3)cc21	-9&8	100&98	99&101	163&136
10	CCn1c(SCc2ccc(Br)cc2)nnc1-c1ccncc1	-11	101	102	11
11	COc1ccccc1NC(=O)Cc1nc(CSc2nc(C)cs2)cs1	1	/	/	14
12	O=C(Nc1ccccc1)c1ccccc1SCC(=O)N1CCCC1	-26	101	109	101
13	O=c1[nH]nc(SCc2ccccc2)c(=S)[nH]1	-66	107	112	/
14	COC(=O)NC(=S)Nc1ccc(Oc2ccc(Cl)cc2Cl)cc1	-36	104	107	-6
15	Cc1[nH]c2ccccc2c1C(Nc1ccccc1)c1ccccn1 (configuration not stated)	/	100	95	10
16	NNC(=O)c1ccc(CSc2n[nH]c(=O)[nH]c2=O)cc1	11	102	105	6
17	Cc1cn2c3ccccc3nc2n1CCCO	-26	96	92	-3
18	C=CCN(CC=C)C(=O)c1ccc(C)s1	4	101	104	-14
19	CCOC(=O)C1CC(O)CN1 (configuration not stated)	-37	101	101	-1
20	COc1ccccc1/C=N/NC1=NCCCCC1	-12	102	99	28
21	CCOc1ccccc1CN1CCN(C)CC1	-1	98	102	-6
22	O=C(O)c1cc(-c2ccco2)nc2ccc(Br)cc12	0	73*	85*	/
23	O=C(N1CCCCC1)N1CCC(c2nc3ccccc3[nH]2)CC1	4	102	100	-6
24	O=C(CCC(=O)c1ccc(F)cc1)c1ccc(F)cc1	3	105	111	-13
25	CN(C)Cn1c(O)c(N=NC(=O)c2ccccc2)c2ccccc21	14	102	105	-22
26	O=C(NCc1cccs1)C1CCCN(S(=O)(=O)c2cccnc2)C1 (configuration not stated)	6	102	103	6
27	Cc1ccc(Cl)cc1N1CCN(C(=O)c2cc3c(=O)[nH]c4ccccc4c3n2C)CC1	-20	99	102	1
28	C=CCn1c(CC(=O)Nc2cccc(OC)c2)nnc1SCC(=O)NC1CCCCC1	-16	100	101	-9
29	CN(C)c1ccc(/C=C2\CCC(=C3CCCC3)C2=O)cc1	-32	44	236	14
30	CC(C)=C1N=C(c2cccs2)OC1=O	-24	103	101	67

# Two entries from above, field by field:
14. COC(=O)NC(=S)Nc1ccc(Oc2ccc(Cl)cc2Cl)cc1
- MenB inh: -36
- PV pol inh: 104
- PV pol inh intensity: 107
- Mtb MbtI inh: -6

15. Cc1[nH]c2ccccc2c1C(Nc1ccccc1)c1ccccn1 (configuration not stated)
- MenB inh: /
- PV pol inh: 100
- PV pol inh intensity: 95
- Mtb MbtI inh: 10

# Other records:
no.	SMILES	MenB inh	PV pol inh	PV pol inh intensity	Mtb MbtI inh
31	CCOC(=O)Cc1cn2ccsc2n1	/	103	100	-6
32	O=C(Nc1ccc(Cl)c(Cl)c1)OCc1ccco1	-26	100	102	-6
33	O=c1oc(-c2ccco2)nc2ccccc12	-48	102	97	32
34	C=CCn1c(SCC(=O)Nc2cccc(OC)c2)nnc1C(C)NC(=O)c1ccccc1 (configuration not stated)	-1	100	100	6
35	c1ccc(CSc2nnc(SCc3ccccn3)s2)nc1	1	104	108	/
36	CSc1ncnc2c1cnn2-c1ccccc1	-30	105	103	-3
37	COc1ccc(CCN(C)C2CCNCC2)cc1OC	2	103	104	-3
38	CS(=O)(=O)c1ccc2nc(NC(=O)C3CCCC3)sc2c1	-29	101	93	-9
39	Cc1ccc(C)c(Cn2c(=O)n(CCCC(=O)NCc3ccccc3Cl)c(=O)c3ccccc32)c1	-10	101	106	0
40	O=C(OCC(=O)c1cc2c3c(c1)CC(=O)N3CCC2)C1=COCCO1	-9	97	107	-13
41	Cc1c(C(=O)N(C)Cc2ccccc2)sc2nc3n(c(=O)c12)CCCC3	3	100	97	5
42	CCCC[C@@H](C)[C@@H](OC(=O)C[C@@H](CC(=O)O)C(=O)O)[C@H](C[C@@H](C)C[C@H](O)CCCC[C@@H](O)C[C@H](O)[C@H](C)N)OC(=O)C[C@H](CC(=O)O)C(=O)O	/	104	104	-9
43	Cc1cccc(C)c1OCc1nnc(CCc2ccccc2)o1	-16	106	109	2
44	Cn1cc(NC(=O)Nc2ccc(S(=O)(=O)N3CCCCC3)cc2)c2ccccc2c1=O	-4	101	104	12
45	CC(O)CNCc1ccc(-c2ccccc2)o1 (configuration not stated)	8	100	101	2
46	C=CCSc1ncnc2c1sc1nc(N3CCOCC3)c3c(c12)CCCC3	0	101	96	12
47	O=C(N/N=C/c1ccccc1)C(O)c1ccccc1 (configuration not stated)	-10	100	102	13
48	COc1cccc(-n2cc(C(=O)N3CCC(C)CC3)c3ccccc3c2=O)c1	-18	103	102	-40
49	O=c1c(=O)n(-c2ccc3c(c2)OCO3)ccn1Cc1ccc(F)cc1Cl	-4	101	101	57
50	COC1=CC(=O)C[C@@H](C)[C@]12Oc1c(Cl)c(OC)cc(OC)c1C2=O	0	100	102	-55
51	Nc1c(Cl)cnn(-c2ccccc2)c1=O	-9	98	104	9
52	COc1cc2cc(CN(Cc3ccc4c(c3)OCO4)C(=O)NCc3ccccc3)c(=O)[nH]c2cc1OC	-53	105	99	-316
53	CC1CCCC(NC(=O)CSc2ncn[nH]2)C1C (configuration not stated)	1	101	107	-11
54	COc1cc(NC(=O)COc2ccc(F)cc2)nc(OC)n1	9	102	105	6
55	CC(O)Cn1c(N(C)Cc2ccccc2)nc2c1c(=O)n(C)c(=O)n2C (configuration not stated)	-48	103	105	1
56	CCC1CCCCN1C(=O)c1cc(-c2ccc(F)cc2)no1 (configuration not stated)	3	106	102	-23
57	O=C(COC(=O)Cc1cccs1)NCc1ccc2c(c1)OCO2	-28	102	99	9
58	CCC1=Nc2cc(C(=O)N(C)Cc3ccccc3)ccc2Sc2ccc(C)cc21	-14	105	112	-10
59	c1ccc(Cn2c(NCc3cccs3)nc3ccccc32)cc1	-13	100	101	0
60	O=C(c1cc(-c2cccnc2)nc2ccccc12)N1CCC2(CC1)OCCO2	-13	103	104	-2
61	Cc1ccc(-c2c(C)sc3ncn(CC(=O)O)c(=O)c23)cc1C	-4	101	107	-1
62	CC1=C(N(C)c2ccccc2)C(=O)N(C2CCCCC2)C1	-25	106	113	/
63	CC(C(=O)Nc1ccc(S(=O)(=O)N2CCOCC2)cc1)N1CCN(c2ccccn2)CC1 (configuration not stated)	8	108	112	-13
64	O=C(NCCC(c1ccccc1)c1ccccc1)C1=COCCO1	/	102	103	-18
65	Cc1noc(C)c1CC(=O)Nc1ccccc1N1CCCCC1	11	102	98	12
66	CC(=O)N1N=C(c2c(-c3ccccc3)c3cc(Cl)ccc3n(C)c2=O)CC1c1ccco1 (configuration not stated)	-32	104	108	5
67	O=C(O)CCCN=C1NC2(CCCC2)Cc2ccccc21	-17	108	105	/
68	CCOC(=O)NC(=O)c1cn(Cc2ccco2)c(=O)[nH]c1=O	-9	105	105	3
69	COc1ccc(OCCOc2ccccc2F)cc1	-41	/	/	-12
70	CCc1nnc2c(Nc3ccc(F)cc3)nc3ccccc3n12	-6	104	104	-11
71	CC(CN1c2ccccc2Sc2ccccc21)N(C)C (configuration not stated)	-11&6	99&101	103&101	-12&-25
72	O=C(O)C1CCC(C(=O)O)C1 (configuration not stated)	-24	/	/	4
73	CCCN1CCC2(CC1)C1CN(CCC)CC=C1C(C#N)=C(N)C2(C#N)C#N (configuration not stated)	-121	83	120	29
74	CCOC(=O)N/N=C/c1ccc(Sc2ccc(Cl)cc2)o1	-21	105	102	13
75	CCCNc1nc(NC2CCCCC2)nc(OC(C)C)n1	-7	104	103	/
76	COc1cc(CN(C)C(=O)CN2C(=O)C3C4C=CC(C4)C3C2=O)ccc1OC(F)F (configuration not stated)	-13	107	108	12
77	Cc1c(O)c(-c2ccccc2)c(=O)n(-c2ccccn2)c1-c1ccccc1	-15	98	86	7
78	O=c1[nH]c2ccccc2nc1/C=C(\O)c1ccco1	-13	100	166	3
79	COc1ccc(OCC(=O)Nc2cccc(NC(=O)c3ccco3)c2)cc1	-11	105	104	/
80	CCOC(=O)c1noc2nc(C)nc(NCCN3CCOCC3)c12	16	104	104	3
81	COc1ccc(-c2nc(C(N)=O)c3[nH]c(=O)n(CC4CCCO4)c3n2)cc1O (configuration not stated)	0	100	100	-1
82	O=C(Nc1ccncc1)c1cccc(S(=O)(=O)N2CCCC2)c1	-13	104	107	-16
83	Cc1csc(C(C#N)C(=O)CSc2nc3cc(Cl)ccc3s2)n1 (configuration not stated)	-17	108	110	3
84	CCC(C)OC(=O)C1CC=CCC1C(=O)Nc1ccc(C)cc1 (configuration not stated)	-14	104	109	/
85	Cc1nc2c(o1)NC(N)=C(C#N)C21CCN(C)CC1	-39	93	110	-1
86	COc1ccc(-n2nc(C(=O)NC3CCCC(C)C3C)c3c4ccccc4n(C)c3c2=O)cc1 (configuration not stated)	-7	100	100	30
87	COc1cccc(OC)c1C(=O)OCc1ccccc1C#N	8	/	/	8
88	Cc1occc1C(=O)Nc1ccc(N(C)C)cc1	-13	100	96	-8
89	CCOC(=O)c1noc2ncnc(N3CCc4ccccc43)c12	-12	101	100	-12
90	CN(C)S(=O)(=O)c1cc(C(=O)NCC2CCCO2)c(Cl)cc1Cl (configuration not stated)	2	99	97	/

# Next results
no.	SMILES	MenB inh	PV pol inh	PV pol inh intensity	Mtb MbtI inh
91	COc1cccc(NC(=O)Cn2cc(C(=O)c3ccccc3)c(=O)c3cc(OC)ccc32)c1	-10	103	108	-140
92	COc1ccc(-c2noc(N3CCC(C(=O)N(C)c4ccccc4C)CC3)n2)cc1	1	102	103	-22
93	O=C(CSc1ncnc2c1oc1ccccc12)Nc1ccc(F)cc1	2	97	97	-3
94	O=C(Cc1cc(=O)[nH][nH]1)N/N=C/C=C/c1ccccc1	-93	103	101	22
95	N#Cc1ccc(COC(=O)c2ccc(-n3cnc4ccccc43)cc2)cc1	14	105	98	103
96	CCOC(=O)C1CCCN(C(=O)c2ccccc2OCC)C1 (configuration not stated)	-1	110	116	/
97	CCc1ccccc1NC(=O)CCNS(=O)(=O)c1ccc2c(c1)CC(C)N2C(C)=O (configuration not stated)	-22	103	107	-11
98	COc1ccc(OC)c(C(=O)Cn2cnc3sccc3c2=O)c1	-1	119	129	-53
99	CCc1ccc(C2CC(c3ccccc3)n3ncnc3N2)cc1 (configuration not stated)	1	101	103	5
100	CCS(=O)CCSc1nc(-c2cccs2)cc(C(F)(F)F)c1C#N (configuration not stated)	-1	100	102	-28
101	COc1ccc(OCC(=O)NN)cc1	2	103	103	2
102	CC(C)(C)NS(=O)(=O)c1cccs1	-12	102	103	7
103	Cc1ccc(C(C)C)c(OCC(=O)OCC(N)=O)c1	1	103	111	-30
